Compound activity as filed in PubChem BioAssay.
MLL AF4-AF9 inh – MLL-AF4/AF9 protein interaction inhibition. P42568. AlphaScreen, biotin-AF4 peptide binding to FLAG-AF9. inhibition, % at 10 µM. actives 0.47% (n = 350,000);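 active = every replicate reaching a set inhibition limit, whatever the replicate mean, cut at about 25% in these data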;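 note: 0% = plate neutral control median and 100% = total signal loss; the record names both 10 and 1 µM as test concentration; the first replicate is given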
Target sequence (P42568 whole entry, looked up): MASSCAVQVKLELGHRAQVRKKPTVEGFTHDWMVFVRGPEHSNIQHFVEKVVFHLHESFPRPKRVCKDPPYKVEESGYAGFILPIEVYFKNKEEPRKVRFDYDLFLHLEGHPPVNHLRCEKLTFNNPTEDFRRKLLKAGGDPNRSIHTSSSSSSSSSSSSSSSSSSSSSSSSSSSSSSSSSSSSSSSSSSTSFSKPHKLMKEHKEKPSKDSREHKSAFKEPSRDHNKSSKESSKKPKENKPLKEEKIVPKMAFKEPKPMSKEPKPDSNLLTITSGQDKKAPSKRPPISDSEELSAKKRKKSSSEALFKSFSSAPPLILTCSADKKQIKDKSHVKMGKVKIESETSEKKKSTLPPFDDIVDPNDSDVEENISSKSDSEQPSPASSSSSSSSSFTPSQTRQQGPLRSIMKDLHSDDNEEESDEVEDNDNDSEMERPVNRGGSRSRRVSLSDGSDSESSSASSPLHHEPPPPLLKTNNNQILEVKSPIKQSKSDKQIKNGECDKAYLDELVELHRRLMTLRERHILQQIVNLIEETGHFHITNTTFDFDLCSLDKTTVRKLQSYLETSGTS
Beta cell apopt – beta cell apoptosis inhibition; INS-1E cytokine-induced death, ATP luminescence, 48 h; percent of positive-control rescue, neutral wells zero; actives 0.8% (n = 300,000); AID 435005; protection from apoptosis, % (concentration not given with the values);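 active = all replicates at 75% or more, or half of them and the mean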;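 note: 0% = cytokine-treated negative control wells and 100% = positive control rescue; higher means more ATP so stronger rescue from cytokine killing; wells of about 40 µL received 100 nL stock; the first replicate is given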
Ecoli growth – inhibitors of Escherichia coli growth; OD600, 23 h; hits give low values; OD600 absorbance (no concentration beside the values); actives 0.21% (n = 330,000); AID 1053175;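 active = OD600 absorbance below the run mean of sample wells minus 3.6 SD, in any replicate, cut at about 0.56 in these data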;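 note: stock transfer was 300 nL into about 60 µL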
UCH37 inh – human UCH37 deubiquitinating enzyme inhibition. inhibition, % (concentration not given with the values). actives 0.33% (n = 330,000). AID 588478. purified proteasome/UCH37, Ub-AMC cleavage fluorescence. Q9Y5K5;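 active = mean of two replicates above 20%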;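 note: 0% = compound-free wells with enzyme and 100% = wells lacking proteasome; stock transfer was 100 nL into about 20 µL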
Target sequence (Q9Y5K5 whole entry, looked up): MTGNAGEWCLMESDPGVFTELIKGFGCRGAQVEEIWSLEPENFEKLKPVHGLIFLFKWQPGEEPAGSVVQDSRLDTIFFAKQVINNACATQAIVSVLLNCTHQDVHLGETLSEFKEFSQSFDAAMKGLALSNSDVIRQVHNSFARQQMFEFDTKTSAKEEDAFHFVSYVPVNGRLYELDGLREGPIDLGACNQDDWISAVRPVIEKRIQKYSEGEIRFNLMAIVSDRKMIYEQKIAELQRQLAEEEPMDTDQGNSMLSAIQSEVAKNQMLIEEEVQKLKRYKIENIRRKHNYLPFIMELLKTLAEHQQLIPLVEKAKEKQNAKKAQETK
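Test system – human UCH37 enzyme supplied as purified proteasome complex · Incubation – 30 min preincubation with enzyme, 25 min cleavage at room temperature · Detection – AMC fluorescence from Ub-AMC cleavage, excitation 355 nm, emission 460 nm · Benchmarks – no-proteasome wells (full inhibition) and compound-free wells (no inhibition)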
FGF22 binding – FGF22 (human) thermal shift binding; Q9HCT0; recombinant FGF22 thermal shift, SYPRO orange fluorescence; percent of sucrose octasulfate shift, DMSO zero; calls only at 9.99 µM; actives 1.5% (n = 340,000);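 active = melting point raised past a set limit in the mean and every replicate; three in four hits are not shown here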
Target sequence (Q9HCT0 whole entry, looked up): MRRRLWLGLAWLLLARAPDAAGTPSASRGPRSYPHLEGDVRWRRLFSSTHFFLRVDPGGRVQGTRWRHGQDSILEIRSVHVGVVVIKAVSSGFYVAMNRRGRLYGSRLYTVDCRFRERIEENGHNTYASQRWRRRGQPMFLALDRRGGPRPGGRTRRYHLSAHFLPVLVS
rRNA inh HTS – selective bacterial rRNA inhibition in E. coli | E. coli WT GFP vs humanized-ribosome RFP mutants, fluorescence, 24 h; hits give low values; DMSO median 0, no signal -100 | GFP signal change (wild-type ribosome), % (no concentration beside the values) | actives 1.6% (n = 350,000) | AID 720706;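 active = significant combined selectivity score with lowered wild-type GFP, culture density cut under 30%, mutant RFP and density less affected; inactive = any of these conditions unmet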; note: one replicate is shown; some compounds called inactive have numbers as strong as hits
A1 inh – inhibitors of the anti-apoptotic protein A1, read as caspase activation; MEF A1-2A-BIM cells, Caspase-Glo 3/7 luminescence, 3 h; percent of clofoctol response, vehicle zero; caspase activation, % (no concentration beside the values); actives 0.066% (n = 330,000); AID 2462;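 active = over half of replicate activation scores above 10%, or exactly half above 10 with the replicate mean above 10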;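 note: wells of about 30 µL received 50 nL stock; many hits fall short of the cut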
T cruzi inh – T. cruzi replication inhibition | T. cruzi beta-gal in NIH3T3, luminescence, 90 h | AID 1885 | inhibition, % (test concentration not listed) | actives 1.4% (n = 300,000);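 active = mean inhibition across valid replicates above about 55%, limit read from the data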;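 note: signal also drops with host cell toxicity which is not excluded here; 0% = plate median of DMSO wells and 100% = zero luminescence signal; higher percent means less beta-gal luminescence so fewer parasites; stock transfer was 50 nL into about 50 µL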
rRNA inh HTS OD600 – recorded beside rRNA inh HTS, whose call it bears; OD600 change, %; measured here: OD600 growth;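 optical density of the mix in the first replicate; 0 = DMSO median and -100 = no signal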
rRNA inh HTS RFP – also measured in rRNA inh HTS; calls as there; RFP signal change, %; measured here: RFP humanized mutant strains;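 first replicate; 0 = DMSO median and -100 = no signal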
Active calls of the source: *; i = inactive; nt = no result given; + = active, no number. The list is partial; the hit share may differ from the screen's.

Below each SMILES – MLL AF4-AF9 inh | Beta cell apopt | Ecoli growth | UCH37 inh | FGF22 binding | rRNA inh HTS | rRNA inh HTS OD600 | rRNA inh HTS RFP | A1 inh | T cruzi inh
COc1ccc(N2CCN(Cc3nc(-c4ccc(Cl)cc4Cl)no3)CC2)cc1
→ nt | nt | 0.7 | 4.7 | nt | nt | nt | nt | -0.1 | -2
CC(C(=O)Nc1ccc(F)c(F)c1F)N(C)CC(=O)Nc1ccccc1Br (centres undefined)
→ -9.3 | 2 | 0.71 | 4.3 | nt | -18 | -33 | -6.2 | 0.6 | 102*
COc1ccc(CC2(CO)CCN(Cc3ccncc3)CC2)cc1
→ -0.1 | 0 | 0.65 | -0.6 | i | 5 | 3 | 2.9 | 0.3 | 11
O=C(Cc1ccccc1F)NNC(=O)c1cccs1
→ -4.6 | -4 | 0.67 | 3.8 | i | 3 | 13 | 1.4 | 1.3 | nt
CCN(CCCNC(=O)CCn1c(=O)[nH]c2ccccc2c1=O)c1ccccc1
→ nt | 2 | 0.65 | 4.9 | nt | nt | nt | nt | 0.4 | -7
COc1cccc(C(=O)N(C)CC(=O)Nc2cccc3ccccc23)c1
→ -3.5 | -2 | 0.71 | 3.0 | i | nt | nt | nt | -0.1 | nt
CSc1ccc(CN2CCN(CC=C(C)C)C(CCO)C2)cc1 (centres undefined)
→ 2.4 | -1 | 0.69 | 1.2 | i | 6 | -3 | 0.2 | -0.4 | 29
Cc1ccc(C)c(N(CC(=O)NC2CCCC2)C(=O)CCC(=O)Nc2nccs2)c1
→ 4.9 | -4 | 0.71 | 4.6 | i | -4 | -1 | 0.5 | 0.5 | 9
COc1ccccc1-c1ocnc1C(=O)Nc1ccc(N2CCOCC2)cc1N1CCOCC1
→ 11 | nt | 0.68 | 2.5 | i | -2 | -15 | 1.6 | nt | -1
CCC(NC(=O)c1cc(COc2ccc(C)nc2)on1)c1ccc(C)cc1 (centres undefined)
→ 0.3 | 13 | 0.67 | 0.5 | i | -2 | -28 | -4.6 | -0.2 | 5
C=CCn1c(=O)/c(=C/c2ccc(F)cc2)s/c1=C(\C#N)c1nnc2n1CCCCC2
→ 1.2 | 4 | nt | nt | i | 8 | 4 | -9.7 | 0.3 | 20
Cc1occc1C(=O)NNS(=O)(=O)c1ccc(Cl)cc1
→ -1.8 | -4 | 0.67 | 3.9 | i | 6 | 4 | 1.3 | 0.6 | -2
COc1ccc(S(=O)(=O)N2CCOCC2)cc1NC(=O)c1ccc(OC(F)F)cc1
→ 6.6 | nt | 0.58 | 2.2 | i | 5 | 9 | -0.4 | nt | nt
Cc1sc(NC(=O)c2ccc3ncsc3c2)c(C(N)=O)c1C
→ -1.2 | -1 | 0.62 | -160 | i | 2 | -12 | -1.9 | -7.8 | 0
CCOc1ccc2cc(C3CC(c4ccco4)=NN3S(C)(=O)=O)c(=O)[nH]c2c1 (centres undefined)
→ -32 | -11 | 0.72 | -9.6 | i | 4 | 8 | -0.3 | -1.5 | 1

Single values from the results shown:
COc1ccc(CC2(CO)CCN(Cc3ccncc3)CC2)cc1 in MLL AF4-AF9 inh = -0.1
COc1ccccc1-c1ocnc1C(=O)Nc1ccc(N2CCOCC2)cc1N1CCOCC1 in T cruzi inh = -1

Going on with the list.
Below each SMILES – MLL AF4-AF9 inh | Beta cell apopt | Ecoli growth | UCH37 inh | FGF22 binding | rRNA inh HTS | rRNA inh HTS OD600 | rRNA inh HTS RFP | A1 inh | T cruzi inh
COC(=O)/C(C#N)=C(/Nc1ccc(F)c(Cl)c1)C(F)(F)F
→ 0.5 | -3 | nt | nt | i | 7 | 3 | 0.7 | -1.0 | 12
O=C(NC1CCCCC1)C1CCN(c2nnnn2-c2ccccc2)CC1
→ nt | 1 | 0.74 | 3.5 | nt | nt | nt | nt | 0.4 | -13
COC(=O)c1cc(C)sc1NC(=S)N1CCN(CCc2ccccc2)CC1
→ -1.4 | -2 | 0.71 | 2.9 | i | 12 | 11 | 2.6 | -0.2 | 1
CC(C)c1c(C(=O)N/N=C/c2cccnc2)nnn1-c1nonc1N
→ -6.3 | 1 | nt | nt | i | -20* | -10* | 1.2* | -0.8 | -10
COc1ccc(C(=O)Nc2nc(C)c3cc4c(cc3n2)OCO4)cc1
→ -2.6 | -4 | 0.72 | -290 | i | 5 | 1 | 2.4 | 0.7 | 3
CCCC[C@@H]1C=C(C(=O)O)[C@H](c2ccc3c(c2)OCO3)N1S(=O)(=O)c1ccc(C)cc1
→ 1.1 | -6 | 0.68 | 2.9 | + | -2 | -15 | 4.0 | 0.3 | nt
Cc1cccc(C)c1NC(=O)C(c1cccc([N+](=O)[O-])c1)N(C)C(=O)c1ccccn1 (centres undefined)
→ nt | 2 | 0.7 | 1.9 | nt | nt | nt | nt | 0.1 | -4
COC(=O)c1cn(NC(=O)c2ccncc2)c(=O)c2ccccc12
→ nt | nt | 0.7 | 0.5 | nt | nt | nt | nt | 0.3 | -1
COc1ccc(/C(O)=C/c2nc3ccc(C(=O)NCCc4cccc(C)c4)cc3[nH]c2=O)cc1OC
→ nt | -2 | 0.66 | 6.2 | nt | nt | nt | nt | -0.1 | 36
COc1ccc(NC(=O)COC(=O)CCSc2ccccc2)cc1OC
→ 2.5 | -7 | 0.72 | 1.8 | i | -3 | -1 | 1.2 | -0.4 | nt
OCC[C@H]1C[C@H](O)[C@@H](O)[C@@]2(OCc3ccccc32)O1
→ -2.8 | 0 | nt | -0.4 | i | -12 | -31 | 4.6 | -0.4 | nt
Clc1cccc(Nc2c3c(nc4ncnn24)CCC3)c1
→ nt | 6 | 0.71 | 1.9 | nt | nt | nt | nt | 1.2 | 5
COc1cc(S(=O)(=O)N2CCCCC2)ccc1NC=O
→ nt | -7 | 0.74 | 4.2 | nt | nt | nt | nt | 0.3 | -10
COc1ccc(N2CCN(C(=O)c3ccc(F)cc3)CC2)c([N+](=O)[O-])c1
→ 3.8 | 4 | 0.67 | 3.8 | i | -22 | -3 | 3.4 | -0.4 | 0
CCN(Cc1ccc(Cl)s1)C(=O)c1cccc(OCc2c(C)noc2C)c1
→ -5.3 | 9 | 0.71 | 0.5 | i | -63 | -76 | -26 | 0.7 | nt

Further compounds follow.
Below each SMILES – MLL AF4-AF9 inh | Beta cell apopt | Ecoli growth | UCH37 inh | FGF22 binding | rRNA inh HTS | rRNA inh HTS OD600 | rRNA inh HTS RFP | A1 inh | T cruzi inh
O=C(COc1ccccc1)Nc1cccc(S(=O)(=O)N2CCCC2)c1
→ -1.6 | nt | 0.71 | -0.8 | i | -12 | -8 | -1.8 | nt | nt
COCCn1nnnc1C(c1cccs1)N1CCN(c2nc3ccccc3s2)CC1 (centres undefined)
→ -7.6 | nt | 0.72 | 1.4 | i | -22* | -17* | 2.7* | -0.7 | 13
COc1cc(OC)c(C(=O)Nc2ccc(S(=O)(=O)Nc3ncccn3)cc2)cc1OC
→ nt | 2 | 0.69 | 1.1 | nt | nt | nt | nt | -0.3 | -9
O=C(/C=C/c1ccco1)Nc1ccccn1
→ nt | 3 | 0.67 | 9.1 | nt | nt | nt | nt | -6.4 | -6
O=C(NC12CC3CC(CC(C3)C1)C2)c1cc([N+](=O)[O-])ccc1Cl
→ -3.3 | 10 | 0.68 | 4.1 | i | 16 | 5 | 2.0 | 1.0 | -17
COC(=O)c1ccccc1NC(=O)Nc1cc(C)cc(C)n1
→ nt | -2 | 0.68 | -2.6 | nt | nt | nt | nt | -1.0 | -12
O=C(c1ccccc1)N(c1ccccc1)C1C=CS(=O)(=O)C1 (centres undefined)
→ nt | -1 | 0.76 | -3.2 | nt | nt | nt | nt | -0.7 | 4
COc1ccccc1OCCNC(=O)CCNS(=O)(=O)c1ccc(C)cc1
→ -0.2 | nt | 0.7 | -0.5 | i | 12 | 1 | 0.1 | nt | nt
COc1ccc(-c2noc(N3CCC(C(=O)NC(C)c4ccccc4)CC3)n2)cc1 (centres undefined)
→ 2.5 | 5 | 0.65 | 1.9 | i | 2 | 19 | -4.4 | 0.8 | 12
O=C(COC(=O)CNC(=O)C1CCCCC1)NCc1ccccc1
→ -14 | -8 | 0.66 | 0.2 | i | -2 | 5 | -0.7 | -0.6 | nt
COc1cccc(CNC(=O)COC(=O)C2CC3CCCC(C2)C3=O)c1 (centres undefined)
→ -7.7 | nt | 0.71 | 2.0 | i | 7 | 13 | -2.5 | 0.4 | 6
O=C(c1csc2c1CCCC2)N1CCN(c2ccccc2)CC1
→ nt | -8 | 0.68 | 1.6 | nt | nt | nt | nt | 0.3 | -10
Cc1ccc(S(=O)(=O)NCCC(=O)Nc2cccc(S(=O)(=O)N3CCCC3)c2)cc1C
→ 0.5 | nt | 0.67 | 3.0 | i | -13 | -34 | -1.7 | nt | nt
CC(NC(=O)C1CCCN(S(=O)(=O)c2cnc[nH]2)C1)c1ccccc1 (centres undefined)
→ -0.2 | -10 | 0.71 | 1.2 | i | 3 | 5 | 5.0 | -0.3 | 2
C#CCn1c(=NC(=O)c2ccc(Cl)s2)sc2cccc(OC)c21
→ -3.5 | 43 | 0.82 | -94 | i | -1 | 12 | -5.4 | 0.1 | 33

Further results:
Below each SMILES – MLL AF4-AF9 inh | Beta cell apopt | Ecoli growth | UCH37 inh | FGF22 binding | rRNA inh HTS | rRNA inh HTS OD600 | rRNA inh HTS RFP | A1 inh | T cruzi inh
NC(=O)c1ccsc1NC(=O)CCc1ccccc1
→ -5.5 | 4 | 0.65 | 1.4 | i | 2 | 6 | 0.3 | -3.3 | 5
O=C(CN1C(=O)NC2(CCOc3ccccc32)C1=O)Nc1cccc([N+](=O)[O-])c1 (centres undefined)
→ 2.1 | 1 | 0.69 | 1.2 | i | -23 | -12 | -4.1 | -0.2 | nt
O=C(NNC(=O)c1cnccn1)c1ccc(Cl)c(Cl)c1
→ 1.6 | 37 | 0.59 | 6.2 | i | -33 | -55 | -4.9 | 0.2 | -11
O=C(Nc1ccc(NC(=O)C2CC2)cc1)c1cccs1
→ -0.3 | 5 | 0.69 | 2.9 | i | -4 | 3 | -2.7 | -6.5 | 0
CCN(CC)c1ccc(NC(=O)CSc2nc(C)cc(=O)[nH]2)cc1
→ -3.1 | -2 | 0.66 | 3.2 | i | -14* | -14* | 4.8* | -0.1 | -4
Cc1cccc(-c2noc(Cc3ccc(Cl)cc3)n2)c1
→ nt | 3 | 0.78 | -0.2 | nt | nt | nt | nt | -0.5 | 23
c1cc(CNC23CC4CC(CC(C4)C2)C3)ccn1
→ 1.7 | 1 | 0.72 | 2.5 | i | 9 | 3 | 2.4 | 0.3 | -2
CSc1nc(NCc2ccco2)c2sc3nc(C(C)C)c4c(c3c2n1)CC(C)(C)OC4
→ nt | 4 | 0.69 | -46 | nt | nt | nt | nt | 0.7 | 8
Cc1ccnc(NC(=O)C2CCCN(c3ncnc4c3nc3n4CCCCC3)C2)c1 (centres undefined)
→ -0.8 | -6 | 0.65 | 2.2 | i | 3 | 20 | -1.0 | 0.2 | -11
CCOC(=O)c1c(NC(=O)CSc2nnc(CN3CCOCC3)n2C)sc2c1CCCC2
→ nt | 4 | 0.69 | 2.9 | nt | nt | nt | nt | -0.1 | 6
COc1ccccc1CNC(=O)c1ccc(CS(=O)(=O)c2ccccc2C)o1
→ 0.1 | 1 | 0.7 | 0.7 | i | -2 | -2 | 2.2 | 0.6 | 18
CN(C)S(=O)(=O)c1ccc(C(=O)OCC(=O)Nc2ccc3c(c2)OCO3)cc1
→ -0.2 | -1 | 0.67 | 3.5 | i | 19 | 10 | 0.3 | -1.5 | nt
